MLL AF4-AF9 inh: inhibitors of human MLL-AF4/AF9 interaction; 0.47% of 350,000 active; P42568; inhibition, % at 10 µM; AlphaScreen, biotin-AF4 peptide binding to FLAG-AF9;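 active = every replicate reaching a set inhibition limit, whatever the replicate mean, cut at about 25% in these data; inconclusive = mean inhibition reaches that limit but some replicates miss it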;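 note: 0% = plate neutral control median and 100% = total signal loss; the record names both 10 and 1 µM as test concentration; the first replicate is given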
Target sequence (P42568 whole entry, looked up): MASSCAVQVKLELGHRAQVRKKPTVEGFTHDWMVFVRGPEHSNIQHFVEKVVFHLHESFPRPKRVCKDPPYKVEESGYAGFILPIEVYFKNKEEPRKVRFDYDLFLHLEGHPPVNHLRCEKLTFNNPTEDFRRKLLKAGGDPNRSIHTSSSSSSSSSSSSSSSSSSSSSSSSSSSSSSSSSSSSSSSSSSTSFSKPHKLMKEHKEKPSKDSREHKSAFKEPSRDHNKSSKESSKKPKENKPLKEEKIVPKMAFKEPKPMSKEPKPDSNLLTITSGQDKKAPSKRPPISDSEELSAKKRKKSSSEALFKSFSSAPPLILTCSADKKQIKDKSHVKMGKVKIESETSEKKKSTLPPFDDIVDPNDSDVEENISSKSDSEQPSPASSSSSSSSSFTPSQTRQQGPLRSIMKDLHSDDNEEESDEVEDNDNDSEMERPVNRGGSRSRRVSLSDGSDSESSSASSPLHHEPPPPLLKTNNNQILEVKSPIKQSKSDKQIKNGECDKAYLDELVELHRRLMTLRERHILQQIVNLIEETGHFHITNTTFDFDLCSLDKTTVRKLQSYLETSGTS
rRNA inh HTS: inhibitors of bacterial rRNA selective over humanized ribosomes. 1.6% of 350,000 active. E. coli WT GFP vs humanized-ribosome RFP mutants, fluorescence, 24 h; hits give low values; DMSO median 0, no signal -100. GFP signal change (wild-type ribosome), % (test concentration not listed);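 active = significant combined selectivity score with lowered wild-type GFP, culture density cut under 30%, mutant RFP and density less affected; inactive = any of these conditions unmet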; note: one replicate is shown; some compounds called inactive have numbers as strong as hits
rRNA inh HTS OD600: also measured in rRNA inh HTS; calls as there; OD600 change, %; measured here: OD600 growth;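 optical density of the mix in the first replicate; 0 = DMSO median and -100 = no signal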
rRNA inh HTS RFP: also measured in rRNA inh HTS; calls as there; RFP signal change, %; measured here: RFP humanized mutant strains;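 first replicate; 0 = DMSO median and -100 = no signal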
Starred values were filed as active, the others as inactive; ? = inconclusive; & = joins results of further samples. This is a subset; the hit share may differ from the screen's.

SMILES	MLL AF4-AF9 inh	rRNA inh HTS	rRNA inh HTS OD600	rRNA inh HTS RFP
COc1ccc2c3c(n(C)c2c1)[C@H](CO)N(S(=O)(=O)c1ccc(C)cc1)CC31CN(S(=O)(=O)c2ccc(C)cc2)C1	-3.6	3	13	-0.9
CO[C@H]1CN(C)C(=O)c2ccc(NC(C)=O)cc2OC[C@H](C)N(C(=O)Cc2cccnc2)C[C@H]1C	-0.4	0	2	-0.8
O=C(c1cccc(F)c1)N1CC2(C1)[C@H](c1ccccc1)[C@H](CO)N2C(=O)C1CCCC1	0.0	0	-6	4.3
CO[C@H]1CN(C)C(=O)c2cc(NC(=O)Nc3ccc(Cl)cc3)ccc2OC[C@H](C)N(C)C[C@H]1C	5.0	-4	-2	0.6
O=C(c1ccncc1)N1C[C@H]2[C@@H](c3ccccc31)[C@@H](CO)N2C(=O)Nc1ccccc1Cl	1.1	2	5	0.9
O=C(Nc1cccc(F)c1)N1CC(=O)N2[C@@H](CO)[C@@H](c3ccc(-c4cccc(F)c4)cc3)[C@@H]2C1	-0.8	-44	-65	-4.4
CO[C@H]1CN(C)C(=O)c2cc(NC(C)=O)ccc2OC[C@@H](C)N(Cc2cccc(F)c2)C[C@@H]1C	4.4	-5	-9	-0.7
c1ccc(CNC2CC3CCC2C3)cc1 (configuration not stated)	-2.0	8	9	-0.1
O=C(C[C@H]1CC[C@H]2[C@@H](COC[C@H](O)CN2CC2CC2)O1)NCC1CC1	1.3	-2	13	-6.6
N#C[C@@H]1[C@H](c2ccccc2-c2cccc(F)c2)[C@H](CO)N1C(=O)NC1CCCC1	0.9	-13	-55	4.6
CC=Cc1ccc2n(c1=O)C[C@@H]1[C@@H](CO)[C@H](C(=O)NCCc3cn(C)cn3)[C@H]2N1C(=O)CC1CC1 (mixture of isomers)	-4.4	4	9	0.5
C[C@@H]1CCCCO[C@@H](CN(C)Cc2ccc(C(=O)O)cc2)[C@H](C)CN([C@@H](C)CO)C(=O)c2cc(NC(=O)Nc3ccc(F)cc3)ccc2O1	-4.3	2	7	-0.3
O=C(c1ccc(N2CCCC2=O)cc1)N1CCN(c2cccc(C(F)(F)F)c2)CC1	-0.6	-49	-79	-12
COc1cccc(-c2ccc3c(c2)[C@H]2[C@H](CCN2C(=O)NC2CCCCC2)[C@@H](CO)N3C)c1	?	-5	-41	31
C[C@@H]1CN([C@H](C)CO)C(=O)c2cc(C3=CCCC3)cnc2O[C@@H]1CN(C)Cc1ccccc1	1.6	2	-1	1.5
CO[C@H]1CN(C)C(=O)c2cc(NC(=O)Nc3cc(F)ccc3F)ccc2OC[C@@H](C)N(C(=O)c2ccccn2)C[C@H]1C	4.2	1	-2	3.0
O=C(NC1CCCCC1)[C@@H]1[C@@H](CO)[C@@H]2Cn3c(cccc3=O)[C@@H]2N1CC1CCCC1	-1.4	-7	-11	0.5
CO[C@H]1CN(C)C(=O)c2ccc(NC(C)=O)cc2OC[C@H](C)N(C(=O)CC2CC2)C[C@H]1C	-1.9	1	0	-0.1
C[C@@H]1CN([C@@H](C)CO)C(=O)c2cc(-c3cccc(F)c3)cnc2O[C@H]1CN(C)Cc1cccnc1	0.1	-3	1	-3.1
N#C[C@H]1[C@H](c2ccc(-c3cccc(F)c3)cc2)[C@@H](CO)N1C(=O)NC1CCCCC1	-3.8	-5	-46	15

Two compounds drawn at random from those above:
SMILES	MLL AF4-AF9 inh	rRNA inh HTS	rRNA inh HTS OD600	rRNA inh HTS RFP
CC=Cc1ccc2n(c1=O)C[C@@H]1[C@@H](CO)[C@H](C(=O)NCCc3cn(C)cn3)[C@H]2N1C(=O)CC1CC1 (mixture of isomers)	-4.4	4	9	0.5
c1ccc(CNC2CC3CCC2C3)cc1 (configuration not stated)	-2.0	8	9	-0.1

Further results follow:
SMILES	MLL AF4-AF9 inh	rRNA inh HTS	rRNA inh HTS OD600	rRNA inh HTS RFP
COc1ccc(C#Cc2ccc([C@H]3[C@H](CO)N4C(=O)CN(C(=O)c5ccncc5)C[C@@H]34)cc2)cc1	0.1	-1	5	5.0
COc1ccc(C#Cc2ccc3c(c2)[C@@H]2[C@@H](CCN2Cc2nccs2)[C@@H](CO)N3)cc1	-2.2	-22*	13*	3.8*
COc1cccc(-c2ccc([C@H]3[C@H]4CN(C(=O)C5CCC5)CC(=O)N4[C@H]3CO)cc2)c1	-2.9	-6	-1	2.8
CN(C)C(=O)c1ccc(-c2ccc([C@@H]3[C@@H](CO)N4C(=O)CN(C(=O)C5CCC5)C[C@H]34)cc2)cc1	14	5	9	0.6
CCC(=O)Nc1ccc2c(c1)C(=O)N(C)C[C@@H](OC)[C@H](C)CN(C(C)=O)[C@@H](C)CO2	-0.5	-1	0	-0.7
CN1C(=O)c2cc(NC(=O)Cc3ccccc3)ccc2OC[C@H]2O[C@@H](CC(=O)O)CC[C@@H]21	-1.4	1	6	-1.1
CCCNC(=O)N1[C@@H]2c3ccc(-c4cccc(F)c4)c(=O)n3C[C@H]1[C@H](CO)[C@H]2C(=O)NC1CCC1	1.5	3	8	0.8
COCC(=O)N1[C@@H](CO)[C@@H](c2ccccc2)C12CN(C(=O)Cc1ccccn1)C2	-3.7	10	14	-0.6
O=S(=O)(c1ccc(-c2ccccc2)cc1)N1C[C@@H]2N[C@H](C1)C2c1ccc(-c2cncnc2)cc1 (some centres not stated)	-1.5	1&-12	7&2	0.9&21
COc1ccccc1C=NNC(=O)c1ccncc1	-3.3	13	11	0.0
C[C@@H]1CN([C@@H](C)CO)C(=O)Cc2cc(N(C)C)ccc2O[C@@H]1CN(C)CC1CC1	2.3	7	7	0.5
Cc1ccc(S(=O)(=O)N(C)C[C@H]2OCCCC[C@H](C)Oc3ccc(NC(=O)CCC(F)(F)F)cc3C(=O)N([C@H](C)CO)C[C@H]2C)cc1	-1.9	-3	-5	0.0
Cc1noc(C)c1NC(=O)Nc1ccc2c(c1)C(=O)N([C@@H](C)CO)C[C@@H](C)[C@H](CN(C)Cc1ccccc1)OCCCC[C@@H](C)O2	-3.3	-2	0	-3.2
O=C(C1CC1)N1CC(=O)N2[C@H](CO)[C@H](c3ccc(-c4ccccc4F)cc3)[C@H]2C1	-0.5	3	17	-3.2
CO[C@H]1CN(C)C(=O)c2cc(NC(C)=O)ccc2OC[C@H](C)N(Cc2cccc(F)c2)C[C@@H]1C	4.0	-1	-5	-0.8
COc1ccc2c3c(n(C)c2c1)[C@@H](CO)N(C)CC31CN(CC2CC2)C1	1.3	1	5	-1.5
CC(C)NC(=O)NCC[C@H]1CC[C@@H](NS(=O)(=O)c2ccccc2)[C@@H](CO)O1	1.7	2	4	0.9
O=C(C1CC1)N1CC(=O)N2[C@@H](CO)[C@H](c3ccc(Br)cc3)[C@@H]2C1	-2.8	0	14	-0.3
COc1ccc(-c2ccccc2[C@@H]2[C@@H](C#N)N(C(=O)NC3CCCC3)[C@H]2CO)cc1	0.4	-4	-7	-2.9
CC(C)C#Cc1ccc([C@H]2[C@@H](CO)N3C(=O)CN(C(=O)c4ccccn4)C[C@H]23)cc1	-0.9	4	18	2.7
COc1cccc(-c2ccc(C3[C@H]4CNC[C@@H]3N4C(=O)Nc3ccccc3OC)cc2)c1 (some centres not stated)	0.2&6.5	8&-61	-2&-75	2.1&-11
O=C(Cc1ccncc1)Nc1ccc2c(c1)[C@@H]1C[C@H](CC(=O)N3CCCCC3)O[C@@H](CO)[C@@H]1O2	3.1	-2	4	-1.6
COc1ccccc1CN1C[C@@H]2N[C@H](C1)[C@@H]2c1ccc(-c2cccnc2)cc1	-4.6	-1	7	1.5
O=C(Nc1cccc(F)c1)N1CC(=O)N2[C@H](CO)[C@@H](c3ccc(C#Cc4cccnc4)cc3)[C@@H]2C1	-1.3	-13	-24	10
COc1ccc(NC(=O)N2CC(=O)N3[C@H](CO)[C@@H](c4ccc(Br)cc4)[C@H]3C2)cc1	-0.5	-2	3	-0.4
CCNC(=O)[C@@H]1[C@@H](CO)[C@@H]2Cn3c(ccc(C4=CCCCC4)c3=O)[C@@H]2N1Cc1ccccc1F	3.9	1	-2	5.5
COc1ccc2c3c(n(C)c2c1)[C@H](CO)N(CC1CC1)CC31CN(C(=O)Nc2c(C)noc2C)C1	-5.3	0	4	-2.4
C[C@H](CO)N1C[C@H](C)[C@@H](CN(C)Cc2ccc3c(c2)OCO3)Oc2ccc(NC(=O)CCC(F)(F)F)cc2CC1=O	3.5	1	-14	1.9
CO[C@@H]1CN(C)C(=O)c2cc(NC(=O)CC(F)(F)F)ccc2OC[C@H](C)NC[C@H]1C	-4.1	3	5	8.4
O=C(Cc1ccccn1)N1CC(=O)N2[C@H](C1)[C@H](c1ccc(C#CC3CCCC3)cc1)[C@@H]2CO	2.5	2	-2	1.2
CCCNC(=O)N1CC(=O)N2[C@H](C1)[C@@H](c1ccc(-c3ccc(C)cc3)cc1)[C@@H]2CO	-0.1	5	-11	14
CC=Cc1ccc2n(c1=O)C[C@@H]1[C@@H](CO)[C@H](C(=O)N(C)C)[C@H]2N1S(=O)(=O)c1ccccc1C (mixture of isomers)	-4.4	0	0	-1.3
CO[C@@H]1CN(C)C(=O)c2ccc(NC(=O)c3ccc(F)cc3)cc2OC[C@@H](C)NC[C@@H]1C	-2.9	0	0	0.2
COc1ccc2c3c([nH]c2c1)[C@H](CO)N(Cc1ccccc1OC)CC31CCN(C)CC1	17	1	15	7.2
COc1ccccc1NC(=O)N1CC(=O)N2[C@H](CO)[C@@H](c3ccc(-c4ccc(C)cc4)cc3)[C@@H]2C1	2.3	6	-20	25
N#C[C@@H]1[C@H](c2ccccc2-c2cccc(F)c2)[C@@H](CO)N1C(=O)C1CCCC1	-1.0	-1	-25	-1.4
CO[C@H]1CN(C)C(=O)c2ccc(NC(=O)Cc3ccccc3)cc2OC[C@H](C)N(C)C[C@@H]1C	-7.1	0	3	0.8
COc1ccccc1NC(=O)N1CC(=O)N2[C@H](CO)[C@H](c3ccc(-c4ccc(F)cc4)cc3)[C@@H]2C1	2.7	-3	-43	27
CO[C@H]1CN(C)C(=O)c2ccc(NC(=O)c3cccc(F)c3)cc2OC[C@H](C)N(C)C[C@H]1C	-3.7	-2	-6	-0.3
CCNC(=O)C[C@@H]1CC[C@H]2[C@@H](COc3ccc(NC(=O)Nc4cccc(Cl)c4)cc3C(=O)N2C)O1	3.1	0	-4	3.6
CC(C)CC#Cc1ccc([C@@H]2[C@H](CO)N3C(=O)CN(S(=O)(=O)c4ccccc4)C[C@@H]23)cc1	-1.0	3	1	-2.5
CC=Cc1ccc2n(c1=O)C[C@H]1[C@H](CO)[C@@H](C(=O)NCCC)[C@@H]2N1C(=O)c1ccncc1 (mixture of isomers)	-3.3	0	7	-1.4
O=C(C[C@H]1C[C@H]2c3cc(NC(=O)NC4CCCCC4)ccc3O[C@H]2[C@@H](CO)O1)NC1CCCC1	-6.5	0	4	-0.6
CCC(=O)N(C)C[C@H]1Oc2cc(-c3cncnc3)ccc2S(=O)(=O)N([C@H](C)CO)C[C@H]1C	1.9	5	17	-2.7
O=C(c1cnccn1)N1CC(=O)N2[C@H](CO)[C@H](c3ccc(-c4ccc(F)cc4)cc3)[C@@H]2C1	0.5	5	12	-2.7
C[C@@H]1CCCCO[C@@H](CN(C)Cc2ccncc2)[C@H](C)CN([C@H](C)CO)C(=O)c2cc(NC(=O)Nc3ccccc3)ccc2O1	3.2	1	-2	1.7
N#Cc1cccc(-c2ccc(C3[C@@H]4CN(C(=O)Cc5ccncc5)C[C@H]3N4)cc2)c1 (some centres not stated)	-0.3&9.7	-5&-1	5&2	2.9&3.1
O=C(Nc1ccc(Cl)cc1)N1[C@@H]2CNC[C@H]1C2c1ccc(/C=C/c2ccccc2)cc1 (some centres not stated)	0.3&4.2	-63&-63	-72&-77	-13&-16
CCCNC[C@H]1[C@@H](c2ccc(C3=CCCCC3)cc2)[C@@H](CO)N1C(=O)C1CCC1	3.5	4	-2	2.0
CO[C@@H]1CC[C@H]2CCN(C)C(=O)[C@@H](C)N(C)C(=O)c3cccc(C#N)c3OC[C@@H]1O2	-0.3	1	9	-0.6
COc1cccc(-c2ccc([C@@H]3[C@H](CO)N4C(=O)CN(C(=O)C5CCC5)C[C@@H]34)cc2)c1	-1.3	-3	2	-3.0
CC(C)CC#Cc1ccc([C@H]2[C@H](CO)N3C(=O)CN(C(=O)c4cnccn4)C[C@@H]23)cc1	-3.9	1	2	2.9
CN(C)C(=O)c1ccc(-c2ccc([C@H]3[C@H](CO)N4C(=O)CN(C(=O)C5CCC5)C[C@@H]34)cc2)cc1	-1.1	7	20	-4.1

An excerpt from above in order of molecular weight, ascending:
SMILES	MLL AF4-AF9 inh	rRNA inh HTS	rRNA inh HTS OD600	rRNA inh HTS RFP
N#Cc1cccc(-c2ccc(C3[C@@H]4CN(C(=O)Cc5ccncc5)C[C@H]3N4)cc2)c1 (some centres not stated)	-0.3&9.7	-5&-1	5&2	2.9&3.1
CCCNC[C@H]1[C@@H](c2ccc(C3=CCCCC3)cc2)[C@@H](CO)N1C(=O)C1CCC1	3.5	4	-2	2.0
COc1cccc(-c2ccc([C@@H]3[C@H](CO)N4C(=O)CN(C(=O)C5CCC5)C[C@@H]34)cc2)c1	-1.3	-3	2	-3.0
CC(C)CC#Cc1ccc([C@@H]2[C@H](CO)N3C(=O)CN(S(=O)(=O)c4ccccc4)C[C@@H]23)cc1	-1.0	3	1	-2.5
CCC(=O)N(C)C[C@H]1Oc2cc(-c3cncnc3)ccc2S(=O)(=O)N([C@H](C)CO)C[C@H]1C	1.9	5	17	-2.7
